From PubChem
PfHsp90 set2 – growth inhibition of PfHsp90-expressing yeast, primary screen, antimalarial PfHsp90 inhibitor project, S. cerevisiae, BacTiter-Glo luminescence, single point, set 2; actives 0.32% (n = 310,000); AID 504621, 2011; BacTiter-Glo ATP, 48 h; yeast lacking PDR1 and PDR3 efflux regulators; inhibition, % at 9.4 µM;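 active = every replicate shows inhibition above about 80%, whatever the replicate mean, limit read from the data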;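 also: 0% = DMSO neutral controls and 100% = 20 µM radicicol positive controls; yeast relying on Plasmodium falciparum Hsp90 in place of its own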
Mot1-301 SUMO – yeast Mot1-301 growth rescue at high temperature, primary screen, SUMOylation pathway inhibitor project, S. cerevisiae, ATP luminescence, 38.5C | S. cerevisiae Mot1-301 growth rescue; percent above DMSO median, 100 means doubled | growth rescue, % at 18.8 µM | actives 1% (n = 320,000) | AID 2716, 2010;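 active = every valid replicate shows activation above 250% relative to neutral control wells; inactive = the rest, any valid replicate at or below 250%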;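 also: OY570 slx delta 5 strain wells were the positive control but not used for scaling; some compounds called inactive have numbers as strong as hits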
HTR5A inv ctr – HTR5A inverse agonists in luminescence cell assay, primary screen, counter-screen for OPRM1-OPRD1 heterodimer inverse agonist project, full-deck HTS. HTR5A cell line, inverse agonism. AID 504634, 2011. actives 0.083% (n = 340,000). inhibition, % at 9.3 µM; in the data active = inhibition mostly above about 23%, no sharp cut-off; inactive = mostly below about 18%;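 also: 0% = cells with DMSO and 100% = no-cell wells with DMSO; some compounds called inactive have numbers as strong as hits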
Target sequence (P47898 whole entry, looked up): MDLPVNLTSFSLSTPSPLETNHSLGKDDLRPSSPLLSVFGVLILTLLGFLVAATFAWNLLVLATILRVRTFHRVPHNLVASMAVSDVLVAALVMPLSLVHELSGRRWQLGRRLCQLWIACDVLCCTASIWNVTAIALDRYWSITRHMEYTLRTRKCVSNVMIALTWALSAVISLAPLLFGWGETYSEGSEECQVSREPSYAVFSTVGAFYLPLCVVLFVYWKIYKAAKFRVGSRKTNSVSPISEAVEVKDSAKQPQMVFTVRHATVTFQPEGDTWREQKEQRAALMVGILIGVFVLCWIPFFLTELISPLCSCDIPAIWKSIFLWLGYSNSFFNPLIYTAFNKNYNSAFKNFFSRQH
Active calls of the source: *; & = joins results of further samples. Not all compounds are listed; the hit share may differ from the screen's.

`CC(C)(C(=O)O)c1ccc(C(O)CCCN2CCC(C(O)(c3ccccc3)c3ccccc3)CC2)cc1` (centres undefined) gave PfHsp90 set2 4, Mot1-301 SUMO 6 and HTR5A inv ctr 0.
Screening CN1C2CC(OC(=O)C(CO)c3ccccc3)CC1C1OC12 (centres undefined) returned PfHsp90 set2 -1&-5&-16, Mot1-301 SUMO -2 and HTR5A inv ctr -4&-9&13.
Screening C[C@@H]1C[C@H]2[C@@H]3C[C@H](F)C4=CC(=O)C=C[C@]4(C)[C@@]3(F)[C@@H](O)C[C@]2(C)[C@@]1(O)C(=O)CO returned PfHsp90 set2 6, Mot1-301 SUMO -10 and HTR5A inv ctr 6.
Screening NC(CCC(=O)NC(CS)C(=O)NCC(=O)O)C(=O)O (centres undefined) returned PfHsp90 set2 -13 and HTR5A inv ctr -10.
Screening C[C@H](C(=O)O)c1cccc(C(=O)c2ccccc2)c1 returned PfHsp90 set2 6, Mot1-301 SUMO 7 and HTR5A inv ctr -1.
`CN1C2CCC1CC(OC(=O)C(CO)c1ccccc1)C2` (centres undefined) gave PfHsp90 set2 -2, Mot1-301 SUMO -14 and HTR5A inv ctr 0.
For O=c1[nH]cnc2c1ncn2[C@H]1CC[C@@H](CO)O1 the results were PfHsp90 set2 -40, Mot1-301 SUMO 13 and HTR5A inv ctr 5.
CC(C)(C)CC(C)(C)c1ccc(OCCOCC[N+](C)(C)Cc2ccccc2)cc1 was read as PfHsp90 set2 -41, Mot1-301 SUMO 194 and HTR5A inv ctr -15.
CN=C(NC#N)NCCSCc1nc[nH]c1C was read as PfHsp90 set2 11, Mot1-301 SUMO -4&-17 and HTR5A inv ctr -2.
For CN1CCCC1c1cccnc1 (centres undefined) the results were PfHsp90 set2 24, Mot1-301 SUMO 5 and HTR5A inv ctr -21.
`CCc1nc(N)nc(N)c1-c1ccc(NCCN)c([N+](=O)[O-])c1` gave PfHsp90 set2 -4 and HTR5A inv ctr -16.
For Cc1nn(CC(=O)O)c(C)c1Cl the results were PfHsp90 set2 4, Mot1-301 SUMO 77 and HTR5A inv ctr -19.
For O=C(O)COCCN1CCN([C@H](c2ccccc2)c2ccc(Cl)cc2)CC1 the results were PfHsp90 set2 -11, Mot1-301 SUMO 485 and HTR5A inv ctr -9.

Among those listed so far, five contain a COOH group:
`CC(C)(C(=O)O)c1ccc(C(O)CCCN2CCC(C(O)(c3ccccc3)c3ccccc3)CC2)cc1` (centres undefined) gave PfHsp90 set2 4, Mot1-301 SUMO 6 and HTR5A inv ctr 0.
Screening NC(CCC(=O)NC(CS)C(=O)NCC(=O)O)C(=O)O (centres undefined) returned PfHsp90 set2 -13 and HTR5A inv ctr -10.
Screening C[C@H](C(=O)O)c1cccc(C(=O)c2ccccc2)c1 returned PfHsp90 set2 6, Mot1-301 SUMO 7 and HTR5A inv ctr -1.
For Cc1nn(CC(=O)O)c(C)c1Cl the results were PfHsp90 set2 4, Mot1-301 SUMO 77 and HTR5A inv ctr -19.
For O=C(O)COCCN1CCN([C@H](c2ccccc2)c2ccc(Cl)cc2)CC1 the results were PfHsp90 set2 -11, Mot1-301 SUMO 485 and HTR5A inv ctr -9.

Pulled one by one from the list above:
For Cc1nn(CC(=O)O)c(C)c1Cl the results were PfHsp90 set2 4, Mot1-301 SUMO 77 and HTR5A inv ctr -19.
Screening C[C@@H]1C[C@H]2[C@@H]3C[C@H](F)C4=CC(=O)C=C[C@]4(C)[C@@]3(F)[C@@H](O)C[C@]2(C)[C@@]1(O)C(=O)CO returned PfHsp90 set2 6, Mot1-301 SUMO -10 and HTR5A inv ctr 6.
